# From PubChem
# TRPML1 inh = human mucolipin-1 channel inhibition. Q9GZU1. TRPML1-inducible cells, Ca2+ dye fluorescence, FDSS; hits give low values; inhibition of EC80 agonist-evoked calcium signal. activity change, negative = inhibition, % (test concentration not listed). 390,000 tested, 0.02% active. AID 624415; in the data active means activity change below about -50%; inconclusive means about -30% to -50%; inactive means above about -30%;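 further: stimulus is agonist 54-4 at its EC80 concentration; on the % scale 0 is the no-effect control and ±100 the full control effect; compound concentration not given in the record; the text of the record puts the active cut at -80%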
#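 TRPML1-DL cells, Tet-induced overnight (~16 h, 37 °C) at 1,500 cells/well, were loaded with Ca8 no-wash dye plus quencher for 45-90 min at room temperature. Compounds were pinned during FDSS kinetic reading; agonist 54-4 at EC80 (4 uM final) then added.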
# PINK1 modulator = modulators of PINK1 expression. Potency, µM (top dose mostly 76.6 µM), inactives show at the top dose activation (PINK1 increase), usual class: activators. AID 624263. PINK1 immunofluorescence, high-content cytometry, 24 h. 410,000 tested, 0.2% active; active = well fitted activation curve with a large enough effect; inconclusive = small, poorly fitted or top-dose-only effect; inactive = flat fitted curve, though single readings scatter; cell line not stated here;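 further: potency means the concentration at half of the fitted maximal effect; % of control where 0% means no effect; nearly all actives have a fitted effect of over 65% in size; a mitochondrial uncoupler was the plate control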
#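 Compound titrations (5 concentrations, 24 h) on a stable cell line; DMSO and CCCP controls. Endpoint: fixed-cell PINK1 immunofluorescence with mitochondrial, cell and nuclear markers, scanned by microplate cytometer.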
# Sfp inh = blocks B. subtilis Sfp PPTase activity | Biochemical Sfp PPTase activity, qHTS | Potency, µM, inactives show max response, negative = inhibition, actives largely listed as inhibitors | 310,000 tested, 3.5% active; active means well fitted inhibition curve with a large enough effect; inconclusive means small, poorly fitted or top-dose-only effect, or another doubt; inactive means no such curve, though single readings can be large or run the other way;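 further: the enzyme is Sfp with the accession as filed and its product quenches rhodamine fluorescence; potency means the concentration at half of the fitted maximal effect; 0% = enzyme reaction without inhibitor and -100% = no enzyme wells; top concentration of the series not given in the record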
#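 After 15 min at room temperature with compound, 15 nM Sfp received 5 uM rhodamine-CoA plus 12.5 uM BHQ-2-ybbR (50 mM Hepes pH 7.6, 10 mM MgCl2). Rate came from the fluorescence difference over 30 min, ex 525/em 598 nm.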
# Menin MLL FP FL = displaces fluorescein MLL peptide from human menin | AID 1766 | FP activity change, % at 61.4 µM | Fluorescence polarization, fluorescein-MLL peptide displacement from menin | 290,000 tested, under 10 active; inconclusive = falling polarisation curve, or a change in total fluorescence; inactive = total fluorescence flat and polarisation flat or rising; no compound was filed as active; the % refers to the polarisation; negative = inhibition;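 further: % of control where 0% means no effect; inhibitors lower the polarisation; unlabelled MLL peptide was the positive control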
# TRPML1 agonist = activates the human TRPML1 channel; Q9GZU1; TRPML1-expressing cells, Ca2+ dye fluorescence, FDSS; host cell line not named in the record; reference of the full effect not given here; activation, % (concentration not given with the values); 410,000 tested, 0.12% active; in the data active = activation above about 50%; inconclusive = about 30% to 50%; inactive = below about 30%; further: 0% is about no effect; the text of the record puts the active cut at 80%
#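 Agonist activity was taken from a 110 s kinetic Ca2+ dye read on the FDSS after pinning compounds onto TRPML1-DL cells. The cells were seeded at 1,500/well with Tet inducer, incubated about 16 h, then dye-loaded at room temperature.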
# TRPV1 potentiator = human TRPV1 potentiation; Q8NER1; TRPV1-expressing cells, Fluo-8 calcium influx, capsaicin EC20 potentiation; host cell line not named in the record; control for the full effect not named in the record; potentiation, % at 8.33 µM; 320,000 tested, 0.02% active; active means potentiation above 80%; inconclusive means 30% to 80%; inactive means below 30%; further: 0% is about no effect
# Target sequence (Q8NER1 whole entry, looked up): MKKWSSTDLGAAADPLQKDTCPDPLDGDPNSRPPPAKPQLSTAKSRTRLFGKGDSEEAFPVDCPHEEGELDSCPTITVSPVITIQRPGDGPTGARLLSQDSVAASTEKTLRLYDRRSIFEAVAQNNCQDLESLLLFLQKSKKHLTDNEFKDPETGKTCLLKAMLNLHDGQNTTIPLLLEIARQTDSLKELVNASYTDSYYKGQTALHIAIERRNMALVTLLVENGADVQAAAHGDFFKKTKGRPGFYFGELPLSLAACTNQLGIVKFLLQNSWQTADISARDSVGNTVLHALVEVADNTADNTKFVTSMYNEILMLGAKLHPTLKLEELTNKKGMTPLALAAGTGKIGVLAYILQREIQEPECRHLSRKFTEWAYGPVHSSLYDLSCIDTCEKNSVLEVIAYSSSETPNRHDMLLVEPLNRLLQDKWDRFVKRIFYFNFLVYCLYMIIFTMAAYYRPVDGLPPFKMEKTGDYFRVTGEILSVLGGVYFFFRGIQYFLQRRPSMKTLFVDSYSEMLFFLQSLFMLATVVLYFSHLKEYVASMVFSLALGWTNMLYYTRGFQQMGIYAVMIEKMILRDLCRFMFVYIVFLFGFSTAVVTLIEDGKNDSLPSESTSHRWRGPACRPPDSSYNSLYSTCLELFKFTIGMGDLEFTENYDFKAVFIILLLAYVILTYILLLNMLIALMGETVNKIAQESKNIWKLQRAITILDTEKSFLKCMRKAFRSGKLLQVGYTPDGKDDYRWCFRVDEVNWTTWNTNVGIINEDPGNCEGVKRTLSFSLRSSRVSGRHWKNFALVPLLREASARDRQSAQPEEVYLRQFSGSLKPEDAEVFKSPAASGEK
#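 TRPV1-expressing cells were cultured overnight at 35.5C and loaded with Fluo-8 calcium dye for 40 to 90 min at room temperature. After a 10 s baseline, compound was added and calcium influx was read kinetically for 3 min (ex 480/em 520 nm).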
# ClpP mod = qHTS Assay for Activators of ClpP; purified B. subtilis ClpP, FRET peptide cleavage, 20 min; Potency, µM (doses to about 57.5 µM), inactives show at the top dose activity change, negative = active; 340,000 tested, 1.9% active; AID 651965, 2013; active = well fitted falling curve with a large enough effect; inconclusive = small, poorly fitted or top-dose-only effect; inactive = no such curve, though single readings can be large or run the other way; further: potency means the concentration at half of the fitted maximal effect; the source files actives as falling curves though it sought activators and does not explain the sign; nearly all actives have a fitted effect of over 65% in size; many hits overshoot -100%
# Target sequence (P80244 whole entry, looked up): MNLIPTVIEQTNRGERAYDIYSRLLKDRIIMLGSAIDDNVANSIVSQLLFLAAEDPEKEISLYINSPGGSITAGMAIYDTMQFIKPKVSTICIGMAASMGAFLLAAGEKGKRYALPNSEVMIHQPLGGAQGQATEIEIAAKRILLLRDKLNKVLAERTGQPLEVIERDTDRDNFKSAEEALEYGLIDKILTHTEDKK
#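 Purified B. subtilis ClpP, 10 microg/mL final in Tris/HCl pH8 with KCl, BSA, glycerol and Tween-20, cleaved an Abz/nitrotyrosine-quenched decapeptide. Fluorescence (ex 320, em 430) was read at 0 and 20 min at room temperature. Delta was normalized to 5.8 microM ADEP and DMSO/no-enzyme controls.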
# Numbers without * were called inactive; ? = inconclusive; / = not tested or not shown; & = joins results of further samples; [ ] = dose if it differs, or a comment.
SMILES,TRPML1 inh,PINK1 modulator,Sfp inh,Menin MLL FP FL,TRPML1 agonist,TRPV1 potentiator,ClpP mod
O=C(Nc1ccc(F)c([N+](=O)[O-])c1)c1ccc2c(c1)OCCO2,-1,1.0%,13%,1.6,-0.5,-28,/
CC(=O)c1ccccc1N(C(=O)c1ccco1)C(C(=O)NC1CCCC1)c1ccc(N2CCOCC2)cc1 (configuration not stated),4,4.7%,-7%,6.0,-0.3,2,0.6%
O=C(NC(c1ccc(Cl)cc1)c1cnccn1)C1CCN(Cc2ccccc2)CC1 (configuration not stated),-16,-0.9%,/,/,0.9,/,0.4%
CCC(c1nnnn1Cc1ccc2c(c1)OCO2)N1CCN(c2ccccc2)CC1 (configuration not stated),2,-1.8%,-9%,-1.5,0.5,-5,-0.4%
C=CCNC(=O)CN(Cc1ccccc1)S(=O)(=O)c1ccccc1,11,-1.1%,6%,0.6,0.6,4,/
O=C(Nc1ccc2nc(-c3ccco3)[nH]c2c1)c1ccco1,12,3.4%,45µM*,16,-0.1,-5,1.1%
C/C(=N\OCC(=O)Nn1c(=O)[nH]c2ccccc2c1=O)c1cccs1,0,1.3%,23%,-0.1,0.6,8,?
COc1cccc(NC(=O)Nc2nnc(Cc3ccccc3F)s2)c1,-14,4.1%,0%,1.5,1.8,6,-4.0%
O=S(=O)(c1ccccc1)N1CCCC1c1nc2ccccc2s1 (configuration not stated),-2,0.1%,9%,0.8,0.1,/,0.6%
COC(=O)[C@@H]1C[C@H]1[C@@H](NC(=O)c1ccccc1)c1ccccc1,-9,-0.9%,6%&10%,-1.1&1.5,-0.3,-6,-2.6%
CC(C)n1cc(C(=O)c2ccccc2O)cc(C#N)c1=O,11,2.4%,8%,6.3,-0.1,9,-3.9%
Cc1nn2c(C)c(C(=O)NC(C)c3ccccc3)cnc2c1-c1ccc(F)cc1 (configuration not stated),10,0.0%,/,/,1.5,/,-1.6%
COC(=O)c1ccc(/C=N/NC(=O)C(=O)N2CCCCCC2)cc1,-20,4.6%,10%,/,2.8,-2,0.0%
Cc1ccc(C(=O)C2CCN(S(=O)(=O)c3c(C)noc3C)CC2)cc1,18,-0.2%,5%,-0.4,0.3,19,/
O=C(O)c1cccc(NC(=O)c2cccc(S(=O)(=O)Nc3cccc(C(=O)O)c3)c2)c1,6,2.9%,/,/,-0.1,/,1.0%
O=C(COC(=O)Cc1ccccc1[N+](=O)[O-])NCc1ccc(F)cc1,10,0.0%,9%,3.8,-0.2,-22,/
CC(C)CC(=O)Nc1ccccc1N1CCOCC1,11,-1.1%,5%,3.3,1.5,8,1.8%
Cc1cc(C)c(S(=O)(=O)Nc2cc(-c3cn4ccccc4n3)ccc2C)cc1C,-8,0.1%,/,/,1.0,/,4.6%
CCN1C[C@@H]2[C@@H]3C(=O)N(Cc4ccccc4)C(=O)[C@@H]3[C@](Cc3ccccc3)(C1=O)N2C(=O)c1ccccc1,-14,0.3%,/,/,-0.6,/,1.8%
Cn1c(SCC(=O)c2ccc(F)cc2)nc2cccnc21,-13,0.2%,-4%,2.4,-1.0,3,0.9%
Cc1cc(C)cc(NC(=O)C(Cc2ccccc2)N2Cc3ccccc3C2=O)c1 (configuration not stated),-15,?,/,/,2.2,/,-2.7%
CCCC(C)C(=O)Nc1ccc(Cl)cc1Cl (configuration not stated),4,2.7%,13%,5.7,0.6,-5,6.7%
COCCN(CC(=O)Nc1cccc(C)c1C)C(=O)Cn1c(=O)cnc2ccccc21,-1,0.6%,/,/,4.4,-11,-1.8%
C=CCOc1ccc(/C=C/C(=O)OC(C)C(=O)Nc2ccc(NC(C)=O)cc2)cc1 (configuration not stated),-10,4.1%,/,/,0.9,-8,-1.8%
COc1ccc2[nH]cc(CCNC(=O)c3cnn(-c4ccccc4Cl)c3C3CCN(C(=O)OC(C)(C)C)CC3)c2c1,-2,-1.1%,/,/,1.5,/,-6.4%
c1ccc(-c2cncn2-c2ccccc2)cc1,53,0.0%,/,/,0.0,-23,0.7%
Cc1cc(C)cc(N2CC(C(=O)OCC(=O)Nc3cc(C)on3)CC2=O)c1 (configuration not stated),0,2.0%,2%,-0.8,-0.7,6,/
CCOC(=O)C1=C(C)NC(=O)CC1c1cc2c(cc1Br)OCO2 (configuration not stated),3,-0.7%,19%,-1.0,-0.5,-15,1.6%
Cc1ccc2cc(C(c3nnnn3C3CCCC3)N(Cc3cccnc3)Cc3ccco3)c(=O)[nH]c2c1 (configuration not stated),-1,/,10µM*,-1.7,1.8,1,-1.4%
O=C(NCc1ccccc1)C(=O)NCC1CCCN1S(=O)(=O)c1cccs1 (configuration not stated),11,-1.1%,/,/,-0.5,-5,-0.9%
O=C(CSc1ncccn1)c1ccccc1Br,40,-0.4%,-62%,8.5,-0.8,11,-1.3%
CCOC(=O)c1c(C)c(C)n(Cc2cccc(OC)c2OC)c1C,9,15%,-3%,-0.2,-0.7,5,-4.2%
O=C1CSC(c2cccnc2)N1Cc1ccc(Cl)cc1Cl (configuration not stated),-4,1.7%,18%,2.2,0.3,2,/
COc1ccc(C)cc1NC(=O)NNC(=O)C(C)Oc1ccc([N+](=O)[O-])cc1 (configuration not stated),16,-1.4%,16%,-5.8,-0.5,-2,1.9%
COc1ccc(Cl)cc1C(=O)Nc1ccc(S(=O)(=O)N2CCCC2)cc1,-10,4.2%,?,4.1,-0.1,-7,13%
Clc1cccc(-c2cc3nc4c(c(NCc5ccco5)n3n2)CCCC4)c1,19,/,?,6.0,1.7,-3,?
O=C(NCc1cccnc1)C(=O)NCC(c1cccnc1)N1CCN(c2ccc(F)cc2)CC1 (configuration not stated),-29,2.6%,/,/,0.7,/,1.1%
O=C(Nc1ccccc1OC(F)F)c1ccc(N2CCCC2=O)cc1,-2,0.3%,/,/,-0.3,/,1.8%
COC(=O)C1CSC(C(=O)OC)N1C(=O)CN1CCN(c2ccc(OC)cc2)CC1 (configuration not stated),22,-0.1%,-12%,-3.9,0.1,3,-4.4%
CCn1c(/C=N/n2cnnc2)nc2ccccc21,1,0.0%[38.3 µM],10%,-1.3,0.7,/,28µM*
C[C@@]12C(=O)N(CC3CC3)CC(=O)N1[C@H](/C=C/c1ccccc1)[C@@H]1C(=O)N(c3ccccc3)C(=O)[C@@H]12,3,0.3%,8%,0.0,-0.1,?,0.5%
CCOC(=O)c1ccc(NC(=O)CCc2ccc(C)o2)cc1,39,-0.4%,-27%,0.1,-0.1,-1,-3.7%
C#CCn1c(=O)cc(C)c2ccccc21,9,-0.1%,3%,3.5,0.2,14,/
COc1ccc(NC(=O)c2nc3nccc(C)n3n2)cc1S(=O)(=O)N1CCOCC1,-20,-0.3%,/,/,-0.1,/,-1.4%
O=C(O)c1nn(CC(=O)N2CCC(Cc3ccccc3)CC2)c(=O)c2ccccc12,1,0.4%,-12%,-11,1.5,-8,/
CC1(C)Cn2c(nnc2-c2cccc(O)c2)S1,-5,0.4%[38.3 µM],10%,-1.1,-0.3,-8,0.9%
C[C@H](CO)N1C[C@H](C)[C@H](CN(C)S(=O)(=O)c2ccccc2C#N)OCc2cnnn2CCCC1=O,-15,-0.2%,/,/,-0.6,/,1.0%
Cc1ccc(NC(=O)N2CCCC2)cc1Cl,16,-1.4%,-5%,0.1,3.3,18,-4.9%
CCS(=O)(=O)N1CCN(S(=O)(=O)c2ccc(F)cc2)CC1,-9,-0.4%,30%,-0.2,0.6,0,-2.9%
Cc1ccccc1NC(=O)CN(c1ccc(Cl)cc1Cl)S(=O)(=O)c1ccccc1,25,0.0%,/,/,1.1,/,-2.4%
# Going on with the list:
SMILES,TRPML1 inh,PINK1 modulator,Sfp inh,Menin MLL FP FL,TRPML1 agonist,TRPV1 potentiator,ClpP mod
COc1ccc(CCNC(=O)CCc2ccc(S(=O)(=O)NC(C)C)cc2)cc1OC,-1,5.3%,5%,2.7,2.4,6,0.9%
c1cncc(CSc2nnc3ccc(-c4ccncc4)nn23)c1,/,0.7%,16%,-0.1,/,20,-0.7%
CCOC(=O)N1CCN(C(=O)c2cccc(NS(=O)(=O)c3ccc(F)c(F)c3)c2)CC1,-8,1.6%,8%,-0.1,-0.1,7,1.1%
CC1CC(C)CN(S(=O)(=O)c2ccc(C(=O)NN3CCOCC3)cc2)C1 (configuration not stated),16,2.7%,-4%,1.3,0.3,-15,0.7%
COCCCNC(=O)Cn1nnc(-c2ccc(NC(=O)c3ccccc3OC)cc2)n1,-6,0.3%[38.3 µM],-5%,-0.3,0.6,-6,?
O=C1Nc2ccccc2SC(c2ccccc2)C1O (configuration not stated),16,2.7%,-12%,0.4,-0.1,20,-1.6%
Fc1ccccc1NC(=S)N(CCN1CCCCCC1)Cc1cccs1,7,-0.8%,?,8.0,-0.3,-9,/
Cc1ccc(S(=O)(=O)N2CCOCC2)cc1C(=O)NCc1ccc(F)cc1,15,-1.5%[38.3 µM],22%,0.1,3.2,-3,-0.5%
CC(=O)c1ccc(OC(=O)CCc2nc3ccccc3s2)cc1,-4,-0.1%,16µM*,0.3,0.3,-6,/
CCOC(=O)C1CCCN(Cc2ccccc2Cl)C1 (configuration not stated),-12,1.1%[38.3 µM],-15%,-0.7,0.2,-1,0.4%
Cc1ccc2nc3c(cc(C(=O)NCCc4ccccc4)c(=N)n3CC3CCCO3)c(=O)n2c1 (configuration not stated),17,3.3%,21%,-1.7,4.8,3,/
CC(C)(C)NC(=O)NC(=O)COC(=O)C1=COCCO1,4,0.5%,23%,3.1,0.5,-2,-0.7%
O=C(Nc1ccccc1)c1ccccc1OCC(O)CN1C(=O)c2ccccc2S1(=O)=O (configuration not stated),0,0.8%,14%,-1.4,1.2,22,5.3%
CC(=O)Nc1c(C(=O)N2CCCCCC2)cnn1-c1ccccc1Cl,-5,4.2%[38.3 µM],-12%,2.5,0.4,-2,1.3%

# Random excerpt: 3 compounds from above.
SMILES,TRPML1 inh,PINK1 modulator,Sfp inh,Menin MLL FP FL,TRPML1 agonist,TRPV1 potentiator,ClpP mod
COc1ccc(C)cc1NC(=O)NNC(=O)C(C)Oc1ccc([N+](=O)[O-])cc1 (configuration not stated),16,-1.4%,16%,-5.8,-0.5,-2,1.9%
C=CCOc1ccc(/C=C/C(=O)OC(C)C(=O)Nc2ccc(NC(C)=O)cc2)cc1 (configuration not stated),-10,4.1%,/,/,0.9,-8,-1.8%
CCOC(=O)c1ccc(NC(=O)CCc2ccc(C)o2)cc1,39,-0.4%,-27%,0.1,-0.1,-1,-3.7%
